MLL AF4-AF9 inh = inhibitors of AF4 peptide binding to AF9, primary screen, biochemical, AlphaScreen, biotin-AF4 peptide, FLAG-AF9, single point; Protein AF-9 (Homo sapiens), P42568; inhibition, % at 10 µM; actives 0.47% (n = 350,000);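 active means every replicate reaching a set inhibition limit, whatever the replicate mean, cut at about 25% in these data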;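 further: 0% = plate neutral control median and 100% = total signal loss; the record names both 10 and 1 µM as test concentration; the first replicate is given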
Target sequence (P42568 whole entry, looked up): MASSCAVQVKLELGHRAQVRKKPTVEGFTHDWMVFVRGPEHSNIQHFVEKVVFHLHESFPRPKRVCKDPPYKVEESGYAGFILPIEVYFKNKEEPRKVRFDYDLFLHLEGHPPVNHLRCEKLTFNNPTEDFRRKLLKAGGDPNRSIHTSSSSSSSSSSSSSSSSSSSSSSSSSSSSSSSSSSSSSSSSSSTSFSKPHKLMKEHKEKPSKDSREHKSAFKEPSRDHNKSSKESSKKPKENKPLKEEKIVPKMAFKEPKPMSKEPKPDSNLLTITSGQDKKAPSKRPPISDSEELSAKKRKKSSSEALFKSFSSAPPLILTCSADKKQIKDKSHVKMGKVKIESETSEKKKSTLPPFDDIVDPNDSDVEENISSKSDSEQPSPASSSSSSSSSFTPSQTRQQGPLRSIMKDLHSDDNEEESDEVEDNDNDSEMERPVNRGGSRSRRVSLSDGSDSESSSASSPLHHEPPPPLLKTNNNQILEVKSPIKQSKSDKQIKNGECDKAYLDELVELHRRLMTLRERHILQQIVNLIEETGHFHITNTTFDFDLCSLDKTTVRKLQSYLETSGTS
Active calls of the source: *; & = joins results of further samples.

SMILES | MLL AF4-AF9 inh
CC(C)NC(=O)Nc1ccc2c(c1)CC(=O)N([C@@H](C)CO)C[C@@H](C)[C@H](CN(C)C(=O)Nc1ccc3c(c1)OCO3)O2 | 3.8
CCCN1C[C@H](C)[C@H](OC)CN(C)C(=O)c2ccc(NS(=O)(=O)c3ccccc3)cc2OC[C@H]1C | -2.1
O=C(c1ccncc1)N1CC(=O)N2[C@H](CO)[C@H](c3ccc(-c4cccnc4)cc3)[C@H]2C1 | -2.9
COc1ccc(CN2[C@H](CO)[C@@H]3c4ccccc4N(C(=O)c4ccccc4)C[C@@H]32)cc1 | -0.2
Nc1cc(N)nc(SCC(=O)Nc2cccc(S(=O)(=O)N3CCCCC3)c2)n1 | -3.0
COc1ccccc1-c1cnc2c(c1)C(=O)N([C@H](C)CO)C[C@H](C)[C@H](CN(C)C)O2 | -3.2
O=C(C[C@H]1C[C@H]2c3cc(NC(=O)NC4CCCC4)ccc3O[C@H]2[C@H](CO)O1)NCCN1CCCCC1 | 3.6
COc1ccc(NC(=O)N(C)C[C@@H]2Oc3ccc(NS(=O)(=O)c4ccc(OC)cc4)cc3CC(=O)N([C@@H](C)CO)C[C@@H]2C)cc1 | 0.1
COc1ccc(S(=O)(=O)Nc2ccc3c(c2)C(=O)N([C@H](C)CO)C[C@@H](C)[C@@H](CN(C)S(=O)(=O)c2ccc(F)cc2)O3)cc1 | 1.3
O=C(C[C@@H]1CC[C@@H]2NC[C@H](O)COC[C@H]2O1)NC1Cc2ccccc2C1 | -1.3
C[C@@H]1CN([C@@H](C)CO)C(=O)c2cc(NC(=O)C3CCCCC3)ccc2O[C@@H](C)CCCCO[C@H]1CN(C)C(=O)CCC(F)(F)F | -0.1
C[C@H]1CN([C@@H](C)CO)C(=O)c2cccc(NC(=O)c3nc4ccccc4s3)c2O[C@@H]1CN(C)S(C)(=O)=O | 4.7
C[C@H]1CN([C@@H](C)CO)C(=O)Cc2cc(NC(=O)Nc3ccc(F)cc3)ccc2O[C@H]1CN(C)C(=O)Nc1ccc(F)cc1 | -1.0
CC(=O)NCCNC(=O)C1Cc2c(-c3ccccc3)ccnc2O1 (stereo not given) | -6.0
C[C@@H]1CN([C@@H](C)CO)C(=O)c2cc(NC(=O)Cc3ccccc3)ccc2O[C@@H]1CN(C)C(=O)Nc1ccc2c(c1)OCO2 | -0.8
CC1=C(C(=O)N(C(C)C)C(C)C)CC(CC(=O)NCCN2CCOCC2)C(=O)N1CCC1=CCCCC1 (stereo not given) | -0.8
O=C(N[C@@H]1CC[C@@H](CCNS(=O)(=O)c2cccc(Cl)c2)O[C@@H]1CO)c1ccncc1 | -1.2
Cc1ccc(-c2ccc3c(c2)O[C@@H](CN(C)Cc2ccccc2)[C@@H](C)CN([C@H](C)CO)S3(=O)=O)cc1 | 6.1
CCC(=O)N[C@H]1CC[C@@H](CCn2cc(CN(C)C)nn2)O[C@@H]1CO | 0.0
Cc1ccc(S(=O)(=O)Nc2ccc3c(c2)C(=O)N([C@@H](C)CO)C[C@@H](C)[C@H](CN(C)Cc2ccc(C(=O)O)cc2)OCCCC[C@@H](C)O3)cc1 | -2.2
C[C@@H]1CN([C@H](C)CO)C(=O)Cc2cc(NC(=O)Nc3ccc4c(c3)OCO4)ccc2O[C@H]1CN(C)C | 1.1
O=S1(=O)c2c(F)cccc2OC(COCc2ccccc2)CN1C1CCCC1 (stereo not given) | -3.8
COc1ccccc1S(=O)(=O)N(C)C[C@@H]1Oc2cc(C#CCC(C)C)ccc2S(=O)(=O)N([C@H](C)CO)C[C@@H]1C | 1.8&1.6&2.0
CN1CCCCN2[C@H](CO)[C@@H](c3ccc(C#Cc4ccccc4F)cc3)[C@H]2C1 | 7.6
CCC(=O)N1CC2(C1)[C@@H](c1ccc(-c3cccc(F)c3)cc1)[C@@H](CO)N2CC1CC1 | 2.6
C[C@@H]1CN([C@H](C)CO)C(=O)c2cc(-c3ccccc3F)cnc2O[C@@H]1CN(C)C(=O)c1ccccn1 | 0.3
CCCS(=O)(=O)NC(=O)C1(C)CCCN(C(=O)c2ccco2)C1 (stereo not given) | -6.4
C[C@@H]1CN([C@@H](C)CO)C(=O)Cc2cc(NC(=O)Cn3cnnn3)ccc2O[C@@H]1CN(C)S(=O)(=O)c1ccc(Cl)cc1 | 1.2
CC(C)NC(=O)N(C)C[C@@H]1Oc2ccc(NC(=O)Cc3ccccc3)cc2C(=O)N([C@H](C)CO)C[C@H]1C | -1.7
O=C(Nc1ccccc1F)N[C@@H]1CC[C@H](CC(=O)N2CCCCC2)O[C@@H]1CO | -1.5

Reprinted at random: 3 compounds from above, in no set order.
SMILES | MLL AF4-AF9 inh
C[C@@H]1CN([C@@H](C)CO)C(=O)Cc2cc(NC(=O)Cn3cnnn3)ccc2O[C@@H]1CN(C)S(=O)(=O)c1ccc(Cl)cc1 | 1.2
CC(C)NC(=O)N(C)C[C@@H]1Oc2ccc(NC(=O)Cc3ccccc3)cc2C(=O)N([C@H](C)CO)C[C@H]1C | -1.7
O=C(Nc1ccccc1F)N[C@@H]1CC[C@H](CC(=O)N2CCCCC2)O[C@@H]1CO | -1.5

Further structures.
SMILES | MLL AF4-AF9 inh
CCCCOc1ccc(C(=O)NCCN2CCC(n3c(=O)[nH]c4ccccc43)CC2)cc1 | -0.1
CCCCn1nnnc1C(c1ccc(OC)cc1)N1CCN(C/C=C/c2ccccc2)CC1 (stereo not given) | 9.6
O=S(=O)(NCC[C@H]1CC[C@H](NS(=O)(=O)c2ccccc2Cl)[C@@H](CO)O1)c1ccc(Cl)cc1 | -2.0
C[C@H](CO)N1C[C@H](C)[C@H](CN(C)Cc2ccc(C(=O)Nc3ccccc3N)cc2)Oc2ccc(NC(=O)NC3CCCCC3)cc2CC1=O | -4.6
C[C@@H]1CN([C@H](C)CO)C(=O)Cc2cc(NC(=O)CCCCCC(=O)Nc3ccccc3N)ccc2O[C@@H]1CN(C)S(=O)(=O)c1ccc(F)cc1 | 0.7
CCNC(=O)C[C@@H]1CC[C@@H]2[C@@H](COc3ccc(NC(=O)Nc4ccc(C)cc4)cc3C(=O)N2C)O1 | 1.0
Cc1noc(C)c1NC(=O)N(C)C[C@@H]1Oc2ccc(NC(=O)NC3CCCCC3)cc2CC(=O)N([C@@H](C)CO)C[C@@H]1C | -2.8
O=C(Nc1cccc(Cl)c1)N1C[C@@H]2[C@H](c3ccccc31)[C@H](CO)N2Cc1cccnc1 | 2.4
C[C@H]1CN([C@@H](C)CO)C(=O)c2cccc(NC(=O)NC3CCCCC3)c2O[C@H]1CN(C)C(=O)NC1CCCCC1 | -1.7
Fc1ccc(-c2nc3ccc(Br)cn3c2Cc2ccccc2C(F)(F)F)cc1 | -2.2
CCCC#Cc1ccc([C@@H]2[C@@H](CO)N3C(=O)CN(C(=O)Nc4cccc(F)c4)C[C@@H]23)cc1 | 1.9
Cc1noc(C)c1S(=O)(=O)N(C)C[C@H]1Oc2ccc(NS(C)(=O)=O)cc2CC(=O)N([C@H](C)CO)C[C@@H]1C | -4.2
O=C(N[C@@H]1CC[C@H](CCNS(=O)(=O)c2ccc(F)cc2)O[C@@H]1CO)C1CC1 | 0.0
Cc1ccccc1S(=O)(=O)NCC[C@H]1CC[C@@H](NC(=O)Nc2cccc(F)c2)[C@@H](CO)O1 | 1.2
C[C@H](CO)N1C[C@H](C)[C@H](CN(C)S(=O)(=O)c2cn(C)cn2)Oc2cc(C#Cc3ccccc3)ccc2S1(=O)=O | -2.5
CC(C)C(=O)Nc1ccc2c(c1)C(=O)N(C)[C@H]1CC[C@@H](CC(=O)Nc3ccccc3)O[C@@H]1CO2 | 0.9
CC(C)NC(=O)Nc1cccc2c1O[C@@H](CN(C)Cc1ccc3c(c1)OCO3)[C@H](C)CN([C@@H](C)CO)C2=O | 2.6
CN(C)CC(=O)Nc1ccc2c(c1)[C@@H]1C[C@H](CC(=O)NCc3ccccn3)O[C@@H](CO)[C@@H]1O2 | -2.6
CN1c2ccc(Br)cc2[C@H]2[C@H](CCN2C(=O)C2CCOCC2)[C@H]1CO | 3.4
CO[C@H]1CC[C@@H]2CCN(C)C(=O)[C@H](C)N(C)C(=O)c3cc(C#N)ccc3OC[C@H]1O2 | -0.6

3 entries out of the list above, sorted by their value in MLL AF4-AF9 inh, high to low.
SMILES | MLL AF4-AF9 inh
O=C(N[C@@H]1CC[C@H](CCNS(=O)(=O)c2ccc(F)cc2)O[C@@H]1CO)C1CC1 | 0.0
C[C@@H]1CN([C@@H](C)CO)C(=O)c2cc(NC(=O)C3CCCCC3)ccc2O[C@@H](C)CCCCO[C@H]1CN(C)C(=O)CCC(F)(F)F | -0.1
Cc1noc(C)c1NC(=O)N(C)C[C@@H]1Oc2ccc(NC(=O)NC3CCCCC3)cc2CC(=O)N([C@@H](C)CO)C[C@@H]1C | -2.8

Another view of part of the listing above:
Molecule	MLL AF4-AF9 inh
CN(C)CC(=O)Nc1ccc2c(c1)[C@@H]1C[C@H](CC(=O)NCc3ccccn3)O[C@@H](CO)[C@@H]1O2	-2.6
Cc1noc(C)c1S(=O)(=O)N(C)C[C@H]1Oc2ccc(NS(C)(=O)=O)cc2CC(=O)N([C@H](C)CO)C[C@@H]1C	-4.2

Continued:
SMILES | MLL AF4-AF9 inh
Cc1ccc(N2CCN(C(C(=O)Nc3c(C)cccc3C)c3cc4ccccc4o3)CC2)cc1 (stereo not given) | 0.4
CN(C)CC#Cc1ccc([C@@H]2[C@@H](CO)N3CCCCN(CC4CC4)C[C@H]23)cc1 | 16
O=C(C[C@H]1CC[C@@H]2[C@H](COC[C@@H](O)CN2Cc2cccc(F)c2)O1)NCC1CCCCC1 | 2.6&1.2
CC(C)c1cn(CC[C@H]2CC[C@@H](NC(=O)c3cccc(F)c3)[C@@H](CO)O2)nn1 | -0.1
COc1ccc2c3c(n(C)c2c1)[C@H](CO)N(C(=O)CN(C)C)CC31CN(Cc2cccnc2)C1 | 19
Cc1noc(C)c1S(=O)(=O)N(C)C[C@H]1Oc2ccc(N(C)C)cc2CC(=O)N([C@@H](C)CO)C[C@H]1C | -0.5
C[C@H](CO)N1C[C@H](C)[C@@H](CN(C)Cc2ccc(-c3ccccc3)cc2)Oc2ccc(NS(=O)(=O)c3cccs3)cc2CC1=O | 3.8
C[C@H](CO)N1C[C@H](C)[C@H](CN(C)Cc2ccc(Cl)c(Cl)c2)OCCCC[C@H](C)Oc2ccc(NC(=O)Nc3ccc(C(F)(F)F)cc3)cc2C1=O | -14
COc1cccc(-c2ccc([C@@H]3[C@@H](CO)N4CCCCN(C(=O)NC(C)C)C[C@@H]34)cc2)c1 | -1.5
Cc1noc(C)c1S(=O)(=O)N(C)C[C@@H]1OCCCC[C@H](C)Oc2ccc(NC(=O)Nc3cccc4ccccc34)cc2C(=O)N([C@H](C)CO)C[C@@H]1C | 1.3
CN(CCO)c1ccc2c(c1)OC[C@H](Cc1ccccc1)NS2(=O)=O | -0.6
COc1ccc(CN2C[C@@H](O)COC[C@@H]3O[C@H](CC(=O)NCc4ccncn4)CC[C@H]32)cc1 | -0.7
COC(=O)C1=C(C(=O)OC)[C@]2([C@@H]3CCCCN[C@@H](Cc4ccccc4)C(=O)N3Cc3ccccc3)C=C[C@H]1O2 | -11
C[C@@H]1CN([C@H](C)CO)C(=O)c2cc(-c3ccc(C(=O)N(C)C)cc3)cnc2O[C@@H]1CN(C)Cc1ccc(C(=O)O)cc1 | -8.5
CCS(=O)(=O)N1CCCCN2[C@H](CO)[C@@H](c3ccc(C#Cc4ccccc4OC)cc3)[C@@H]2C1 | -4.6
CCCNC(=O)[C@H]1[C@H](CO)[C@H]2Cn3c(ccc(-c4cccnc4)c3=O)[C@@H]1N2C(=O)Nc1ccccc1 | -1.6
O=Cc1ccc(/C=C2\c3ccccc3C(=O)N2c2ccccc2)o1 | 6.8
C=CCN1C(C(=O)OCC)CSCCS1(=O)=O (stereo not given) | -0.6
C[C@@H]1CN([C@@H](C)CO)C(=O)c2cc(C3=CCCCC3)cnc2O[C@H]1CN(C)C(=O)c1cccc(F)c1 | 2.9
C[C@@H]1CN([C@H](C)CO)C(=O)c2cc(NC(=O)Nc3cccc4ccccc34)ccc2O[C@H]1CN(C)S(C)(=O)=O | 0.2
CCC(=O)N1C[C@@H](C)[C@H](OC)CN(C)C(=O)c2ccc(NC(=O)c3ccc(OC)cc3)cc2OC[C@H]1C | -0.4
COc1ccc2c3c(n(C)c2c1)[C@H](CO)N(Cc1ccncc1)CC31CN(C(=O)C2CCCC2)C1 | -3.6
CN(C)C(=O)c1cccc(-c2ccc([C@@H]3[C@@H](CO)N4C(=O)CNC[C@@H]34)cc2)c1 | -1.8
Cc1noc(C)c1NC(=O)N(C)C[C@@H]1OCCCC[C@@H](C)Oc2ccc(NS(=O)(=O)c3ccc(F)cc3)cc2C(=O)N([C@H](C)CO)C[C@@H]1C | -1.2
COc1ccc(-c2cnc3c(c2)C(=O)N([C@@H](C)CO)C[C@H](C)[C@H](CN(C)C)O3)cc1 | -17
CC(C)NC(=O)N(C)C[C@H]1Oc2ccc(NS(=O)(=O)c3cn(C)cn3)cc2CC(=O)N([C@@H](C)CO)C[C@H]1C | 0.4
COc1ccc(CN(C)C[C@H]2OCCCC[C@@H](C)Oc3ccc(NS(=O)(=O)c4cccs4)cc3C(=O)N([C@@H](C)CO)C[C@H]2C)cc1 | 6.0
CCC(=O)N1C[C@@H](O)COC[C@H]2O[C@@H](CC(=O)NC)CC[C@@H]21 | -0.5
COCCCNC(=O)C[C@@H]1C[C@@]2(C(=O)OC)CCCCC=C2N(Cc2ccc3c(c2)OCO3)C1=O | -0.2
COc1cccc(S(=O)(=O)N2CCC3(CC2)CN(C(=O)Nc2ccc(F)cc2)[C@H](CO)c2[nH]c4cc(OC)ccc4c23)c1 | -15
Cc1cccc(S(=O)(=O)N2C[C@H](O)COC[C@H]3O[C@H](CC(=O)NCc4ccc5c(c4)OCO5)CC[C@@H]32)c1 | 4.9
C[C@@H]1CN([C@H](C)CO)C(=O)c2cccc(NS(=O)(=O)c3ccc(Cl)cc3)c2O[C@H]1CN(C)CC1CCCCC1 | -0.6
Cc1ccc(Cl)cc1-c1cc(C(=O)NCc2ccc(C(F)(F)F)cc2)[nH]n1 | 0.6
O=C(NC1CCCCC1)N[C@@H]1CC[C@H](CCNS(=O)(=O)c2ccc(F)cc2)O[C@H]1CO | 2.6

From PubChem

An excerpt, so the mix of outcomes need not match the whole.
